# PABP FP inh – PABP poly(A) RNA binding inhibitors, primary screen, biochemical, fluorescence polarization, uHTS; inhibition, % at 35 µM; AID 2014, 2009; Polyadenylate-binding protein 1 (Homo sapiens), P11940; hit rate 1% among 290,000;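 active = 50% or more with normal probe brightness, or confirmed in later tests; inconclusive = above 50% with abnormal brightness, or retests that disagree; inactive = below 50% or failed in later tests; about a fifth of its hits are not listed in these tables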;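 note: calls also rest on retests at 20 µM and on dose response follow-up; controls were probe without protein and protein plus probe with vehicle; some compounds called inactive have numbers as strong as hits; many hits fall short of the cut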
# Target sequence (P11940 whole entry, looked up): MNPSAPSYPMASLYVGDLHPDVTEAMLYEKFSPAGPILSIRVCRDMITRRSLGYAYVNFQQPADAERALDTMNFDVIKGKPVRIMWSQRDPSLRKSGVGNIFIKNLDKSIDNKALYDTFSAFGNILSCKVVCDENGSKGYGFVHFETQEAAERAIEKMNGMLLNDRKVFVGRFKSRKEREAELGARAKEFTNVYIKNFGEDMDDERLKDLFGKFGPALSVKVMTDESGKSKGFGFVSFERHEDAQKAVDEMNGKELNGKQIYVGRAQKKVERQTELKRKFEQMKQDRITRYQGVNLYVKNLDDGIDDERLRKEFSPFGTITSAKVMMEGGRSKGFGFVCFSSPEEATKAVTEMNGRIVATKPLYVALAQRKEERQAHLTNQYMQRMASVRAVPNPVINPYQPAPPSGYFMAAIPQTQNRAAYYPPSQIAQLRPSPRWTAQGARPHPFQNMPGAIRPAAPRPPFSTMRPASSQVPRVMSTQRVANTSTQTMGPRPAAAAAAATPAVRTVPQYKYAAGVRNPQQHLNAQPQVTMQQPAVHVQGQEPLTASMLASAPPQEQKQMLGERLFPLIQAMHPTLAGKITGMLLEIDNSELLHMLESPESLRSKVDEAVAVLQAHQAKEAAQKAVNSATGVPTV
# eIF4H inh – human eIF4H binding inhibitors, primary screen, translation initiation inhibitor project, biochemical, uHTS, fluorescence polarization; Eukaryotic translation initiation factor 4H (Homo sapiens), Q15056; hit rate 0.94% among 290,000; eIF4H fluorescence polarization binding assay; inhibition, % at 35 µM;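 active = 50% or more with normal probe brightness, or confirmed in later tests; inconclusive = above 50% with abnormal brightness, or retests that disagree; inactive = below 50% or failed in later tests; about a fifth of its hits are not listed in these tables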;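 note: calls also rest on retests at 20 µM and on dose response follow-up; 0% = protein and probe with vehicle and 100% = probe without protein; strong numbers were not always called active; many hits fall short of the cut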
# CSC inhib – cancer stem cell viability inhibitors, primary screen, luminescence | inhibition, % at 7.5 µM | AID 2717, 2010 | hit rate 1.1% among 300,000 | cancer stem cell-like cells viability;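 active = mean at 75% or more and at least half the replicates too; inconclusive = mean and replicates disagree; tested in HMLE shEcad cells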;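 note: 0% = median of negative and 100% = median of positive control wells; the first replicate is given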
# MT1-MMP act inh – blockers of MT1-MMP proenzyme processing, primary screen, HT1080 RFP-PRO-GFP cells, GFP/RFP fluorescence; AID 651647, 2012; GFP/RFP ratio change, % at 20 µM; hit rate 0.061% among 360,000; Matrix metalloproteinase-14 (Homo sapiens), P50281; GFP/RFP ratio fluorescence, overnight; percent of plate control window, DMSO zero;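 active = GFP/RFP ratio change of at least 30% with cell ATP level not reduced by more than half and red fluorescence within 50% of control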; note: strong numbers were not always called active
#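 Assay system: HT1080 RFP-PRO-GFP cells | Dosing: 20 µM single dose, 1% DMSO | Incubation: Cells overnight before dosing, compound overnight, 37 °C, 5% CO2 | Evaluation: GFP/RFP fluorescence ratio | Control set: DMSO-only wells and HT1080 RFP-L50D-GFP cell wells as references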
# UUG fidelity – modulators of yeast start codon fidelity, primary screen, whole organism, S. cerevisiae, single point, plate reader | activity score, % at 18.7 µM | S. cerevisiae UUG-firefly luciferase reporter, luminescence/redox ratio | hit rate 0.13% among 350,000;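 active = replicate mean at a twofold rise or more, about +100% in these data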;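 note: firefly luciferase made from a UUG start codon reports start codon fidelity; reporter light over untreated wells divided by growth signal over untreated wells; some hits fall short of that in this replicate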
# Rce1 inh – yeast Rce1p protease inhibitors, primary screen, biochemical, fluorescence, cell-free homogeneous. CAAX prenyl protease 2 (Saccharomyces cerevisiae (strain ATCC 204508 / S288c)), Q03530. yeast membranes, quenched prenylated peptide cleavage fluorescence. calls only. hit rate 0.27% among 290,000;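 active = fall in fluorescence gain of 50% or more versus controls, with final raw signal at or below 3038400; inconclusive = same 50% fall but final raw signal above 3038400; inactive = fall in fluorescence gain under 50%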;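 note: plate controls were neutral control wells for no effect and wells lacking membranes for full effect; tested at 10 µM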
# Env fusion inh – inhibitors of HIV-1 Env-driven cell-cell fusion, primary screen, HeLa-JRFL effector, CEM21 target cells, luciferase | hit rate 1.1% among 360,000 | inhibition, % at 12.3 µM;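 active = mean replicate inhibition score of at least 50 and every replicate individually at or above 50; inconclusive = only one of the two criteria met; inactive = mean below 50 and not all replicates reaching 50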;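 note: 0% = plate neutral controls and 100% = maraviroc near 300 nM; one replicate is shown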
# MT1-MMP act inh RFP – further read-out of MT1-MMP act inh, marked with its call; RFP signal change, %; measured here: RFP expression control read;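 0 = vehicle wells; hits needed this value within 50% of zero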
# * = called active by the depositor; i = inactive; ? = inconclusive; . = not tested or not shown; + = active, no number; & = joins results of further samples.
no.	SMILES	PABP FP inh	eIF4H inh	CSC inhib	MT1-MMP act inh
1	Cc1cc(C)c(C2=NOC(O)(C(F)(F)F)C2)c(=O)[nH]1 (configuration not stated)	0	-9	10	1
2	COc1ccc(C(CC(=O)N2CCC3(CC2)OCCO3)NS(=O)(=O)c2ccc(OC)cc2)cc1 (configuration not stated)	10	-9	-7	2
3	FC(F)(F)c1ccc2c(c1)ncn2C1CCN(Cc2nnnn2C2CCCCC2)CC1	-8	4	-13	7
4	CCCCCCn1c(=O)c(C(=O)Nc2cnccn2)c(O)c2ccccc21	-2	-7	41	-16
5	O=c1[nH]c(=O)n(CCc2ccccc2)c(O)c1C=NCc1ccc2c(c1)OCO2	5	-18	0	-9
6	CCN1CCN(Cc2cc(OC)c3c(c2)OCO3)CC1	16	10	-5	-4
7	C[C@H]1CN([C@@H](C)CO)C(=O)CCCn2nncc2CO[C@@H]1CN(C)C(=O)Oc1ccccc1	.	.	.	-3
8	O=C(c1cc(Br)ccc1Cl)N1CCC2(CC1)OCCO2	-8	-11	.	.
9	O=C1Nc2ccccc2Oc2ccccc21	.	.	.	1
10	CCc1ccc(CN2CCCC(C(=O)c3sccc3C)C2)o1 (configuration not stated)	2	-4	-11	-2

no.	MT1-MMP act inh RFP	UUG fidelity	Rce1 inh	Env fusion inh
1	2	-15	i	.
2	1	-5	i	.
3	9	-22	i	-15
4	-27	.	i	3
5	5	-2	i	-13
6	-2	-21	i	6
7	0	7&-8	.	-19
8	.	3	i	-5
9	0	-4	.	16
10	1	.	i	4

# Record cards, from the list above:
# `O=c1[nH]c(=O)n(CCc2ccccc2)c(O)c1C=NCc1ccc2c(c1)OCO2` reads PABP FP inh: 5; eIF4H inh: -18; CSC inhib: 0; MT1-MMP act inh: -9; MT1-MMP act inh RFP: 5; UUG fidelity: -2; Rce1 inh: i; Env fusion inh: -13
# `CCCCCCn1c(=O)c(C(=O)Nc2cnccn2)c(O)c2ccccc21` reads PABP FP inh: -2; eIF4H inh: -7; CSC inhib: 41; MT1-MMP act inh: -16; MT1-MMP act inh RFP: -27; UUG fidelity: .; Rce1 inh: i; Env fusion inh: 3

# Further records.
no.	SMILES	PABP FP inh	eIF4H inh	CSC inhib	MT1-MMP act inh
11	CC[N+](CC)(CC)CCCCCCCCCC[N+](CC)(CC)CC	16	-3	.	-4
12	O=C1NC(=O)N(Cc2ccc(F)cc2)C(=O)/C1=C\c1ccoc1	?	?	1	-88
13	CN(C)c1ccc2c(c1)N=C(c1ccco1)OP2(=S)N1CCOCC1 (configuration not stated)	13	15	-2	4
14	O=C(O)COc1cc(Cl)c(Cl)cc1Cl	.	.	.	1
15	O=[N+]([O-])NC1=NCN(Cc2ccco2)CN1Cc1ccco1	-13	-2	-1	11
16	CC(=O)O[C@@H]1CC[C@]2(C)C3CC[C@@]4(C)C(C[C@@H](O)[C@@H]4O)C3[C@@H](OC(C)=O)C[C@H]2C1 (some centres not stated)	.	.	11	0
17	Cc1ccc(N=C(/N=C(\N)N[N+](=O)[O-])Nc2ccc(C)cc2)cc1	.	.	3	4
18	C=CCn1c(O)c(C(C)=Nc2cccc(C(F)(F)F)c2)c(=O)[nH]c1=O	0	-9	-4	-3
19	CC(=NCc1ccc(F)cc1)c1c(O)n(C)c(=O)n(C)c1=O	-1	-2	2	5
20	CCC(=NCC1CCCO1)c1c(O)n(-c2ccc(OC)cc2)c(=O)[nH]c1=O (configuration not stated)	-1	-4	3	1

no.	MT1-MMP act inh RFP	UUG fidelity	Rce1 inh	Env fusion inh
11	0	0	i	-39
12	18	0	i	-6
13	3	.	i	.
14	-1	-25	.	-5
15	-1	.	i	1
16	1	.	.	7
17	1	-19	i	-2
18	-1	.	i	-7
19	4	-3	i	12
20	-1	-8	i	-2

# (further entries)
no.	SMILES	PABP FP inh	eIF4H inh	CSC inhib	MT1-MMP act inh
21	O=C(Nc1ccc(F)c([N+](=O)[O-])c1)N1C[C@H]2C[C@@H](C1)c1cccc(=O)n1C2	18	-13	-9	2
22	CC(C)(C)n1nnnc1C(c1cc2ccccc2o1)N1CCC2(CC1)C(=O)NCN2c1ccccc1 (configuration not stated)	.	.	.	4
23	Cc1ccc(Cn2nnnc2CN2CCC(n3nnc4ccccc43)CC2)cc1	33	-3	-3	1
24	COc1ccc(OC)c(NC2=NCCCS2)c1	-7	2	4	1
25	COc1ccc2c(c1)CC1(CN2C)C(=O)NC(=O)N(c2ccc(F)cc2)C1=O (configuration not stated)	14	6	0	-23
26	CN(C)c1ccc(/C=C2/C(=O)NC(=O)N(Cc3ccco3)C2=O)cc1	0	?	-9	-22
27	Cn1c(O)c(C(c2ccccn2)c2c(O)n(C)c(=S)[nH]c2=O)c(=O)[nH]c1=S	-7	3	-5	2
28	CC(=O)N1N=C(c2cccnc2)CC1c1ccccc1O (configuration not stated)	1	-6	-15	6
29	O=C(Cn1cnc2ccccc2c1=O)NCCC(=O)N1CCC2(CC1)OCCO2	-1	-7	-23	-1
30	CC(C)(C)n1nnnc1C(CCc1ccccc1)N1CCC2(CC1)C(=O)NCN2c1ccccc1 (configuration not stated)	.	.	.	-5

no.	MT1-MMP act inh RFP	UUG fidelity	Rce1 inh	Env fusion inh
21	1	-9	i	2
22	-8	-7	.	3
23	1	.	i	0
24	1	.	i	4
25	5	3	i	-50
26	7	-4	i	1
27	2	-9	i	-101
28	2	-14	i	-5
29	1	-10	i	-32
30	-11	-14	.	-21

# Continued (four carried over from the part before).
no.	SMILES	PABP FP inh	eIF4H inh	CSC inhib	MT1-MMP act inh
27	Cn1c(O)c(C(c2ccccn2)c2c(O)n(C)c(=S)[nH]c2=O)c(=O)[nH]c1=S	-7	3	-5	2
28	CC(=O)N1N=C(c2cccnc2)CC1c1ccccc1O (configuration not stated)	1	-6	-15	6
29	O=C(Cn1cnc2ccccc2c1=O)NCCC(=O)N1CCC2(CC1)OCCO2	-1	-7	-23	-1
30	CC(C)(C)n1nnnc1C(CCc1ccccc1)N1CCC2(CC1)C(=O)NCN2c1ccccc1 (configuration not stated)	.	.	.	-5
31	C[N+](C)(C)CC#CCN1CCCC1=O	.	.	-11	4
32	CC(Cc1ccccc1)[n+]1cc(/N=C(\[O-])Nc2ccccc2)on1 (configuration not stated)	2	5	11	3
33	O=C1NCN(c2ccccc2)C12CCN(C(c1cc3ccccc3o1)c1nnnn1-c1ccc3c(c1)OCCO3)CC2 (configuration not stated)	.	.	.	-3
34	NP(=O)(Oc1ccccc1Cl)Oc1ccccc1Cl	0	-8	7	0
35	Cc1[nH]c2ccccc2c1CCNCc1ccco1	0	-6	2	0
36	COc1ccc(OP(=O)(Nc2ccccc2)Nc2ccccc2)cc1	11	-1	-8	2
37	c1ccc(CNc2c3c(nc4ccccc24)CCC3)cc1	4	3	16	2
38	CC1(C)COC(Nc2cccc(Cl)c2)=N1	1	-8	-15	-3
39	NP(=O)(OCCCc1ccccc1)Oc1ccccc1Cl (configuration not stated)	-1	-2	-13	1
40	NC(=O)Cn1cc(C(=O)c2ccccc2F)c2ccccc21	-2	0	-5	4

no.	MT1-MMP act inh RFP	UUG fidelity	Rce1 inh	Env fusion inh
27	2	-9	i	-101
28	2	-14	i	-5
29	1	-10	i	-32
30	-11	-14	.	-21
31	5	-10	i	-22
32	0	-16	i	-52
33	-11	-11	.	-41
34	4	.	i	-2
35	2	-3	i	-3
36	1	.	i	.
37	-7	-6	i	-13
38	-1	-15	i	-43
39	5	-16	i	.
40	5	-18	i	-14

# (cont.)
no.	SMILES	PABP FP inh	eIF4H inh	CSC inhib	MT1-MMP act inh
41	Brc1cc2c(cc1CN1CCN(c3ccccc3)CC1)OCCO2	3	-7	16	0
42	COCCNC(=O)N1[C@H]2CC[C@@H]1C(C(=O)OC)=C(c1ccc(-c3ccccc3)c(F)c1)C2	.	.	15	-4
43	CCCCC(=O)N/N=C/c1c(O)n(Cc2ccc(F)cc2)c(=O)[nH]c1=O	-17	7	-4	-11
44	CN(C)C(Cc1ccc(Cl)cc1)C(=O)c1ccccc1 (configuration not stated)	6	1	10	-2
45	COC(=O)C1=C(c2ccccc2)C[C@@H]2CC[C@H]1N2C(=O)NCCS(C)=O (some centres not stated)	.	.	-12	-2
46	Cc1cc(N2CCNCC2)nc2ccccc12	4	-1	-12	-1
47	CC(C(=O)c1c[nH]c2ccccc12)N1CCN(C(=O)c2ccco2)CC1 (configuration not stated)	5	-4	-18	0
48	CCC(=NCc1cccnc1)c1c(O)n(-c2ccccc2C)c(=O)[nH]c1=O	1	-4	-3	1
49	CCCCN1CCC(C#N)(Nc2ccccc2)CC1	-2	-4	-4	4
50	CCOC(=O)C1=C(C)OC(N)=C(C#N)C12C(=O)Nc1ccc(C)cc12 (configuration not stated)	-4	2	-8	0

no.	MT1-MMP act inh RFP	UUG fidelity	Rce1 inh	Env fusion inh
41	1	-17	i	0
42	-24	-11	.	57*
43	0	.	i	11
44	0	.	i	-1
45	1	-8	i	-13
46	0	-6	.	14
47	0	.	i	6
48	0	-15	i	-3
49	7	-13	i	-37
50	1	-7	i	-18

# Other entries.
no.	SMILES	PABP FP inh	eIF4H inh	CSC inhib	MT1-MMP act inh
51	COc1ccc2c3c([nH]c2c1)C(C)=NCC3	12	-2	-7	-18
52	Cc1ccc(C(=O)N[C@@H](C)CN2C3=NC[C@@H](Cc4ccccc4)N3C[C@H]2Cc2ccc(O)cc2)cc1Br	-22	-14	23	.
53	COc1ccccc1-n1c(O)c(C=Nc2c(C)n(C)n(-c3ccccc3)c2=O)c(=O)[nH]c1=O	0	-3	-5	5
54	c1ccc2c(CN3CCOCC3)c[nH]c2c1	-14	-3	-9	0
55	CN(C(=O)Oc1ccc(F)cc1)c1ccccc1	-5	-2	-15	2
56	CCC(C)NC(=O)c1c(N)n(Cc2ccc3c(c2)OCO3)c2nc3ccccc3nc12 (configuration not stated)	4	-4	0	-25
57	COC(=O)C1=C(c2ccc(F)cc2F)C[C@@H]2CC[C@H]1N2C(=O)N1CCCCC1	.	.	4	5
58	Cc1cccc(CC(c2cccc(C)c2)N(C)C)c1 (configuration not stated)	.	.	.	-4
59	C=Cn1ccnc1P(=S)(c1ccc(Cl)cc1)c1nccn1C=C	-11	-7	.	-3
60	CCN(CC)C(=O)c1ccc(NC(=O)c2ccc(N3CCCC3=O)cc2)cc1	.	.	.	2

no.	MT1-MMP act inh RFP	UUG fidelity	Rce1 inh	Env fusion inh
51	6	-18	+	11
52	.	.	i	75*
53	6	-2	i	.
54	2	-19	i	-13
55	2	-17	i	-4
56	-2	-31	i	-17
57	5	-8	.	7
58	6	-8	.	-33
59	-2	-19	i	4
60	-1	-11	.	-10

# An excerpt. The share of hits here may be higher or lower than overall.
